High-throughput results (PubChem BioAssay)
Sa helicase inh: blocks Staphylococcus aureus DNA helicase. purified S. aureus helicase, fluorescence unwinding assay; about half of the hits fall short of the stated cut. inhibition, %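 (tested at about 80 µM)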. actives 0.05% (n = 120,000). AID 485395;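 active = both duplicates at 50% or more, or one of them with a favoured structure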;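 also: 0% = mean of negative control wells and 100% = mean of positive control wells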
MgrA-DNA mod: alters Staphylococcus aureus MgrA binding to DNA; actives 0.13% (n = 84,000); fluorescence polarization; inhibition, %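 (about 10 µg/mL by stock and volumes)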; AID 602314;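 active = above 50% in either of two replicates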;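 also: 0% = protein plus DNA without compound and 100% = DNA alone without protein; higher means less MgrA bound to DNA so lower polarization; one replicate is shown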
* marks the source's active call; other numbers are inactive results; x = not tested or not shown; & = joins results of further samples. Only part of the results is shown; rates above refer to the full screens.

Sa helicase inh | MgrA-DNA mod | Structure
8 | x | O=C(c1ccc(N2CCCS2(=O)=O)cc1)N1CCN(Cc2ccc3c(c2)OCO3)CC1
11 | x | COc1cc(/C=C/C(=O)C2=C(O)c3ccccc3C2=O)ccc1O
-4 | x | Cc1cc(C)c2c(-n3cccc3)c(C(=O)OC3CC(C)OC3=O)sc2n1 (stereo not drawn)
2 | -4.2 | O=C(O)c1ccc2nc(-c3ccccn3)c(-c3ccccn3)nc2c1
-2 | x | COc1cc(OC)cc(C(=O)OCc2nc3ccccc3s2)c1
3 | -0.7 | CC(C)NC(=O)c1cc2ccccc2oc1=O
13 | x | Cc1ccc(C(CNC(=O)c2ccccc2)N2CCN(C)CC2)cc1 (stereo not drawn)
-3 | x | OCN1C2=NCN(Cc3ccc(Cl)cc3)CN2c2ccccc21
30 | x | COc1ccc2c(c1)C1=NN(C(C)=O)C(c3ccc(N(C)C)cc3)C1CC2 (stereo not drawn)
x | 0.0 | Cc1ccc(C(=O)CN(Cc2ccccc2)c2ccccc2)cc1
2 | -1.1 | CCn1c(C(=O)O)c(CNCc2ccccc2)c2ccc(OC)cc21
-16 | 0.6 | CC(OC(=O)c1ccc(C#N)cc1)C(=O)Nc1cccc(C(F)(F)F)c1 (stereo not drawn)
2 | x | O=C(Nc1ncn[nH]1)c1cccnc1
-2 | 0.0 | Cc1ccc(OCC(=O)NC2CC2)cc1
-13 | x | CC1CN=C(NCCSc2ccc(Cl)cc2)S1 (stereo not drawn)
6 | x | CCOC(=O)c1sc2nc(C)nc(NC3CC3)c2c1C
1 | 12 | N#C/C(=C\Nc1ccc(C(=O)O)cc1)c1nc2ccccc2[nH]1
7 | 0.2 | Cc1nc(SCC(N)=O)c2c3c(sc2n1)CCCC3
-1 | x | CC(C)(C)C(=O)NCc1nc2ccccc2n1Cc1ccccc1F
9 | 2.8 | c1ccc(-c2nnc3sc(-c4ccc5c(c4)OCO5)nn23)cc1
10 | x | CCOc1ccc(CC(=O)Nc2c(C(N)=O)oc3ccc(Cl)cc23)cc1OCC
5 | x | CC1CCCN(CCCNC(=O)c2ccc(CS(=O)(=O)c3c(Cl)cccc3Cl)o2)C1 (stereo not drawn)
2 | -1.4 | C=CCN(CC=C)C(=O)CCN1C(=O)c2ccccc2C1=O
4 | -0.7 | O=C(c1ccccc1)c1ccccc1OCc1nc2ccccc2s1
3 | x | O=C(Nc1cccc2nsnc12)c1ccc(Cl)cc1
-1 | 0.2 | O=C(c1ccccc1)N1CCN(S(=O)(=O)N2CCOCC2)CC1
34 | x | CC1Nc2ccc(C(=O)N3CCC4(CC3)OCCO4)cc2NC1=O (stereo not drawn)
-2 | x | Cc1cccc(C)c1NC(=O)CCCSc1nnc(N)s1
x | 3.1 | CCOc1cc(/C=C2/SC(=S)N(C(CCC(=O)O)C(=O)O)C2=O)ccc1O (stereo not drawn)
-7 | 11 | COc1ccc(C2=NN(S(C)(=O)=O)C(c3ccccc3OC)C2)cc1 (stereo not drawn)
x | 0.6 | COCc1cc(C)nc2sc(C(=O)c3ccccc3)c(NC(=O)c3ccco3)c12
12 | -5.2 | O=C(NC(=S)NCc1ccco1)c1ccccc1
x | -0.7 | Cc1ccc(C(=O)C2CCN(S(=O)(=O)c3ccc(Cl)c(Cl)c3)CC2)cc1
-2 | x | C=CCNC(=S)Nc1ccc(Br)cc1
5 | 1.6 | CC1CN(C(=O)CSc2nc(-c3ccco3)cc(C(F)(F)F)n2)CC(C)O1 (stereo not drawn)
x | -1.8 | CO[C@H]1/C=C/O[C@@]2(C)Oc3c(C)c(O)c4c(O)c(c(/C=N/N5CCN(C)CC5)c(O)c4c3C2=O)NC(=O)/C(C)=C\C=C\[C@H](C)[C@H](O)[C@@H](C)[C@@H](O)[C@@H](C)[C@H](OC(C)=O)[C@@H]1C
15 | 1.1 | COC(C(=O)NN=C1CCN(C)CC1)c1ccccc1 (stereo not drawn)
17 | -1.1 | O=S(=O)(NCc1csc(-c2cccnc2)n1)c1ccc2c(c1)CCCC2
-34 | x | Cc1nnsc1C(=O)Nc1ccccc1C#N
-24 | x | NC(=O)c1c(-c2ccc(F)cc2)noc1N
-4 | 2.8 | CCN(CC)C(=O)CSc1nnc(-c2ccccc2Cl)o1
15 | x | CC(C)(C)n1nc2c(c1NC(=O)CC1CCCCC1)CS(=O)C2 (stereo not drawn)
x | -0.8 | O=C1/C(=C/c2ccc(Cl)cc2)CC/C1=C\c1ccc(Cl)cc1
1&4 | x | CCCCN1C(=O)CNC1=S
7 | -0.9 | O=C(O)C(Cc1ccco1)P(=O)(O)CN1CCOCC1 (stereo not drawn)
9 | -1.6 | Cn1nnc(NC(=S)NC(=O)c2cccs2)n1
10 | x | CC(C(=O)NCCC1=CCCCC1)n1ncn2cccc2c1=O (stereo not drawn)
x | 3.3 | Cc1c(CNC(=O)c2ccc(C(F)(F)F)cc2)sc2ccccc12
x | -0.4 | Cc1ccc(CC(N)=S)cc1
x | 0.1 | CC(C)c1ccc(NC(=O)CSCc2csc3ccccc23)cc1
16 | -1.4 | Cc1cccc(CN2CCC(CNC(=O)c3ccc4c(Cl)c5c(nc4c3)CCCC5)CC2)c1
-10 | x | NC(=O)COC(=O)/C=C/c1ccc(S(=O)(=O)N2CCOCC2)cc1
-25 | x | Cc1nnc2c(Nc3ccccc3)nc3ccccc3n12
4 | x | CCn1c(SCC(=O)OC)nnc1-c1c[nH]c2ccccc12
18 | x | O=c1ccc(-c2ccc(S(=O)(=O)N3CCN(c4ccccc4)CC3)s2)n[nH]1
x | 0.0 | COC(=O)c1c(NC(=O)c2ccccc2)csc1C

More structures:
Sa helicase inh | MgrA-DNA mod | Structure
4 | -1.1 | COc1ccc(C(=O)NC2CCN(CC(=O)N3CCCCCC3)CC2)cc1
5 | -0.3 | CCOC(=O)c1cc2c(=O)n3ccccc3nc2n(C2CCCCC2)c1=NC(C)=O
4 | 1.4 | CCN(CC)c1ccc(/C=C(/C#N)c2ccc3c(c2)OCO3)cc1
x | -1.9 | CCOC(=O)c1sc(SCCS(=O)(=O)c2ccc(Cl)cc2)c2c1CCCC2=O
-11 | x | COCCNC(=O)C1c2ccccc2C(=O)N(CCOC)C1c1cccs1 (stereo not drawn)
3 | 2.8 | CC(=O)Nc1ccc2nc(Nc3nc4ccc(C(C)C)cc4s3)sc2c1
4 | x | CCCc1cc(=O)[nH]c(SCC(=O)/C(C#N)=C(\C)N)n1
6 | 2.6 | COC(=O)c1ccccc1NC(=O)CSc1nnc(CSc2nc(C)cc(C)n2)o1
-7 | -0.7 | CC1(C)CC(=O)C(C(NC(=O)c2ccncc2)(C(F)(F)F)C(F)(F)F)=C(NCc2ccco2)C1
9&2 | 0.9&4.8 | O=c1[nH]c2nonc2nc1/C=C(\O)c1ccccc1
3 | 1.6 | CC(=O)Nc1ccc(S(=O)(=O)NC2CCCCC2NS(=O)(=O)c2ccc(NC(C)=O)cc2)cc1 (stereo not drawn)
1 | 20 | Cc1nc2cc(C(F)(F)F)ccc2n1C1CCN(C(=O)C2CC2)CC1
15 | -0.6 | Cn1c(CS(=O)(=O)c2ccc(Cl)cc2)c(C#N)c2ccccc21
-39 | x | COc1ccc(NC(=O)Cn2c(=O)n(-c3ccccc3)c(=O)c3ccc(C(=O)NCc4ccco4)cc32)cc1
7 | x | O=C(CCC(=O)N1CCN(S(=O)(=O)Cc2ccccc2)CC1)c1cccs1
-3 | x | CCSC1=C(C#N)C(=O)NC(c2ccc(N(C)C)cc2)S1 (stereo not drawn)
-24 | x | Clc1ccc(-c2ncnn2-c2cccc(Cl)c2)cc1
x | -2.6 | NC(=O)NC(=S)NC(=O)c1ccccc1Cl
3 | 0.0 | Oc1c(CN2CCOCC2)ccc2ccccc12
3 | 1.9 | Oc1ccc(Cl)cc1C=Nc1ccc2oc(Cc3ccc(Cl)cc3)nc2c1
-1 | 1.7 | Cc1ccc2cnn(CC(=O)N3CC(C)CC(C)C3)c2c1 (stereo not drawn)
0 | x | O=C(Nc1ccccc1C(=O)O)c1ccccc1F
x | -2.4 | CC(=O)n1cc(/C=C2\N=C(c3ccc(Cl)cc3)OC2=O)c2cc(Br)ccc21
1 | x | CNc1nc(SCc2c(C)noc2C)nc2ccccc12
-58 | x | Cc1ccc(C(=O)O)cc1-c1ccc(/C=C2/NC(=O)N(c3ccccc3)C2=O)o1
-4 | x | Cc1ccccc1SCC(=O)NCCN1CCOCC1
7 | x | COCCCn1c(=O)c2ccccc2c2ccccc2c1=O
x | 1.0&1.4 | COc1ccc(CCN2CCC(Nc3nc4ccccc4n3Cc3ccc(F)cc3)CC2)cc1
x | -2.5 | Cc1cc(S(=O)(=O)n2cccc2)c(Cl)cc1Cl
2 | x | N#CCc1c(C#N)c(N)nc(N2CCCCC2)c1C#N
-20 | x | Cc1nc2ccccc2c(=O)n1C
3 | x | Cc1ccc(NC(=O)CSC2=C(C#N)C(c3ccc(C)cc3)C3=C(CCCC3=O)N2)cc1 (stereo not drawn)
6 | x | COc1ccc(C)c2sc(N(Cc3ccccn3)C(=O)c3ccco3)nc12
1 | 1.7 | CC(C)C(=O)Nc1nc2ccccc2s1
2 | 0.8 | O=S(=O)(c1ccc(NC(=S)NCc2ccco2)cc1)N1CCCc2ccccc21
6 | 3.3 | Cc1nn(C(C)CN)c(C)c1C (stereo not drawn)
7 | x | CCC(C)(CC(=O)O)CC(=O)Nc1cc(OC)c(Cl)cc1OC (stereo not drawn)
15 | x | CCOC(=O)Cn1ncc2c(=O)oc3ccccc3c21
1 | -2.1 | CCCC(=O)N1CCc2cc(OC)c(OC)cc2C1COc1ccc(OC)cc1 (stereo not drawn)
-15 | 0.8 | Cc1ccc(-n2nc(C)cc2NC(=O)c2ccc(Cl)cc2)cc1
15 | -0.3 | O=C1c2ccccc2C(=O)N1CN(C(=O)C(F)(F)F)c1ccc(Cl)cc1
x | -2.1 | Cc1ccc(S(=O)(=O)NC(=O)NCCNc2ncc(C(F)(F)F)cc2Cl)cc1
20 | -0.4 | C/C(=C\C(=O)O)C12CC3CC(CC(C3)C1)C2
4 | 1.9 | O=c1cc(CN2CCN(Cc3ccccc3)CC2)nc2sccn12
6 | x | CNC(=O)COC(=O)c1oc2ccccc2c1C
x | 0.0 | CCOC(=O)c1sc(SCc2ccccc2)c2c1-c1sccc1N(C)S2(=O)=O
7 | -0.8 | CCN(CC)C(=O)c1cc2c(s1)-c1c(C)cccc1OC2
-8 | 0.8 | CC1CN(C(=O)c2sc3ccccc3c2Cl)CC(C)O1 (stereo not drawn)
4 | x | O=C1CCc2cc(C3=CSC4=NCCCN34)ccc2N1
14 | x | O=C(N/N=C/c1cccs1)C1CCN(S(=O)(=O)c2cccs2)CC1
16 | x | CCC1CCC(C(=O)NC(C(=O)NCc2cccs2)C(C)C)CC1 (stereo not drawn)
x | -1.5 | COc1ccc(/C=C2\CCc3ccccc3C2=O)cc1OCc1ccccc1
-3 | x | OCc1nc(-c2ccccc2)n2ccccc12
-15 | x | Cn1cc(C(=O)N2CCCCC2)c(=O)c2cc(S(=O)(=O)N3CCCC3)ccc21
-6 | 0.8 | Cc1nc(C2C(=O)c3ccc(O)c(O)c3OC2C(F)(F)F)cs1 (stereo not drawn)
4 | x | CCOC(=O)c1c(C)noc1C

More entries follow:
Sa helicase inh | MgrA-DNA mod | Structure
16 | -15 | CC(C)n1nnnc1SCC(=O)NCc1ccco1
x | -7.5 | N#CCSc1nnc(-c2ncc(C(F)(F)F)cc2Cl)n1-c1ccc(Cl)cc1
-21 | x | NC(=O)N/N=C/c1ccc(OC(F)F)cc1
19 | -5.8 | CN(C)CCCNc1ncnc2ccccc12
-14 | x | Cc1cccc(/N=c2\scc(-c3ccco3)n2-c2ccccc2)n1
0 | x | CC(C(=O)NCc1ccccn1)n1cccc1C(=O)c1ccccc1 (stereo not drawn)
-2 | x | CC1CCC(NC(=O)c2ccc3c(=O)[nH][nH]c(=O)c3c2)CC1 (stereo not drawn)
6 | x | Ic1ccc(Nc2nc(NCCN3CCOCC3)nc(N3CCCC3)n2)cc1
-6 | x | C=CCNC(=O)c1ccc(Br)s1
